PKD1 kinase inh: inhibitors of human PKD1 kinase, biochemical, fluorescence polarization; Serine/threonine-protein kinase D1 (Homo sapiens), Q15139; PKD1 kinase fluorescence polarization assay; actives 0.056% (n = 200,000); inhibition, %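 (about 10 µM by stock and volumes)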;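 active = inhibition of 50% or more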;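 also: controls were vehicle for no effect and a reference inhibitor for full effect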
Target sequence (Q15139 whole entry, looked up): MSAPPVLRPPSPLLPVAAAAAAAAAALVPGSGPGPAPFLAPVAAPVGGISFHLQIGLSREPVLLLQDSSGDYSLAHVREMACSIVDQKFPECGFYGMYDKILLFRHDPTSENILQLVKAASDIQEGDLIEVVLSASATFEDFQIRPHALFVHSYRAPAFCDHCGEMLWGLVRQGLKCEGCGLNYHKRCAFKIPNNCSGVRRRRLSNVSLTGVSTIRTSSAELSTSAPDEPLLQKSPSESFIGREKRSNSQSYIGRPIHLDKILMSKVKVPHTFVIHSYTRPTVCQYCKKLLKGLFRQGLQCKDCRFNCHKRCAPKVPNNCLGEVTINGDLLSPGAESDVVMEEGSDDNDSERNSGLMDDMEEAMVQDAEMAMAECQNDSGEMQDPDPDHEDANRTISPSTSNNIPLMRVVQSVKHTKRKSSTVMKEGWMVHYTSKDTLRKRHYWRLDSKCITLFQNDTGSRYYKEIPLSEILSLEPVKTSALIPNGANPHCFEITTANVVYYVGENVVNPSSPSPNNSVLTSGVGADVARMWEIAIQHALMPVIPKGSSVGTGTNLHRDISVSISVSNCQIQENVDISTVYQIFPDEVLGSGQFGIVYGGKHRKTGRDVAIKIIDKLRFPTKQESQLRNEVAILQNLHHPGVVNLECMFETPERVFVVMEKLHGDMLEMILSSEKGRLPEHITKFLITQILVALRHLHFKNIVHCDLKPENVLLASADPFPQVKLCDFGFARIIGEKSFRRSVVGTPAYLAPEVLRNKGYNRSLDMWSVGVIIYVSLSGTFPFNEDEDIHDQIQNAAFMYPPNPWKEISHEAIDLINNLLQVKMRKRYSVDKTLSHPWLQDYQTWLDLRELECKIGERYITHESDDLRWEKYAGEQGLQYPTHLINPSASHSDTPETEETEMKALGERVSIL
RGS16-Gao HTS: modulators of RGS16 binding to Galphao, primary screen, biochemical, human proteins, multiplexed bead flow cytometry | Regulator of G-protein signaling 16 (Homo sapiens) + Guanine nucleotide-binding protein … | bead-based flow cytometry RGS16-Galphao binding, fluorescence; actives lie on both sides | binding response (% of control), % at 10 µM | actives 0.38% (n = 220,000);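 active = below 25% or above 175%, edge rows of some plates excepted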;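 also: Galphao activated by GDP with aluminum fluoride before binding; 100% = wells without compound and 0% = beads without RGS; some results beyond the cut were filed as inactive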
HSV augment: enhancers of HSV replication in host cells, fold increase, host cell viability; HSV replication augmentation in cells; maximum fold increase; actives 0.005% (n = 220,000); AID 1956, 2009;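 active = peak rise of 1.5-fold or more in the series; tested in PC3 cells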;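 also: first round at 10 µM; read as green reporter fluorescence; hits show the peak of a series up to 25 µM; 1 = signal of infected wells without compound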
GALR2 agonist: GALR2 receptor agonists, primary screen, cell-based | actives 0.48% (n = 140,000) | GALR2-expressing cells, agonist activation read-out | Galanin receptor type 2 (Homo sapiens), O43603 | activation, %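 (tested at 5 µM)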;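 active = above mean plus 3 SD of all compounds, about 5% in these data, not always enough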;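 also: 0% = vehicle buffer wells and 100% = reference agonist at full effect; tested in CHO reporter cells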
INS promoter inh: inhibitors of insulin promoter-driven GFP, primary screen, imaging, TRM-6 cells (human fetal islet line), eGFP reporter, cell count | reporter expression induced with tamoxifen | inhibition, % at 2 µM | actives 0.9% (n = 130,000) | AID 1273, 2008;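 active = inhibition above the mean plus 3 SD, with well images judged a real hit on visual review, cut at about 60% in these data, passing the limit was not always enough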
INS promoter inh cell count: further read-out of INS promoter inh, marked with its call; normalized cell count, %; measured here: cell count, toxicity; reference of the scale not given here;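 cells exposed to compound for 48 h; stained nuclei by imaging scaled within each plate; lower means fewer cells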
HSV augment primary fold: second read-out of HSV augment, no call of its own (marks repeat the call); fold increase; compound at 10 µM; measured here: primary screen fold increase 10 uM; tested in PC3 cells;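 GFP signal in the first replicate; 1 = infected wells without compound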
An asterisk follows results filed as active; i = inactive; · = not tested or not shown.

SMILES | PKD1 kinase inh | RGS16-Gao HTS | HSV augment | HSV augment primary fold | GALR2 agonist | INS promoter inh | INS promoter inh cell count
c1ccc(-c2nc3c4ccccc4ccn3c2CN2CCOCC2)cc1 | · | 96 | i | 1 | · | · | ·
Nc1ccc(C(=O)OCC(=O)N2CCc3ccccc3C2)cc1[N+](=O)[O-] | -10 | 98 | i | 0.95 | -3.0 | 5 | 117
O=C(CSc1ncnc2sc3c(c12)CCCC3)N1CCC(c2noc3ccc(F)cc23)CC1 | 6 | 14 | i | 0.99 | -0.5 | -27 | 114
CCn1cc([N+](=O)[O-])c(C(=O)Nc2c(C)nn(Cc3c(F)c(F)c(F)c(F)c3F)c2C)n1 | 1 | 78 | i | 0.96 | -0.8 | 30 | 93
C=CCOc1ccc2ccccc2c1/C=N/O | 1 | 119 | i | 0.9 | -2.5 | -38 | 168
CN(C)S(=O)(=O)c1cccc(C(=O)OCC(=O)c2ccc3c(c2)NC(=O)CO3)c1 | -3 | 109 | i | 0.78 | -0.9 | 14 | 91
COc1ccc(-c2cc(C(=O)N3CC4(C)CC3CC(C)(C)C4)no2)cc1 (centres undefined) | 0 | 99 | i | 0.9 | -1.0 | -39 | 59
C/C(=N\NS(=O)(=O)c1cccc([N+](=O)[O-])c1)c1cc2ccccc2o1 | 2 | 94 | i | 0.98 | -1.5 | 19 | 126
CCOC(=O)c1cccc(NC(=O)CSc2nnc(-c3cccnc3)n2CC)c1 | -6 | 102 | i | 1.1 | 0.0 | -81 | 171
Cc1ccccc1N1CCN(C(=S)c2ccc(-c3ccc([N+](=O)[O-])cc3)o2)CC1 | · | 96 | i | 0.83 | · | · | ·
CCCOC(=O)Cc1n[nH]c(=O)[nH]c1=O | 2 | 105 | i | 1.2 | -1.6 | · | ·
O=C(Cc1ccc(Cl)cc1)N/N=C1\CCCc2ccccc21 | -7 | 102 | i | 1.1 | -1.9 | 29 | 74
COc1ccc(CNC(=O)/C=C/c2ccc(S(=O)(=O)NCc3ccco3)cc2)cc1OC | -9 | 111 | i | 0.95 | -0.4 | 50 | 92
COc1cc2cc(C(=O)O)n(C)c2c(OC)c1OC | 0 | 103 | i | 0.92 | -0.2 | · | ·
Cc1ccc(S(=O)OCC(=O)Nc2cc(Cl)ccc2N2CCOCC2)cc1 (centres undefined) | 7 | 103 | i | 0.99 | · | 7 | 137
CCOC(=O)N1CCN(c2nc(=S)n(-c3ccccc3)c(C)c2C(C)=O)CC1 | -4 | 80 | i | 1 | -0.6 | · | ·
Fc1ccc(-c2ccnc(=S)[nH]2)cc1 | 7 | 142 | i | 0.92 | -1.3 | -12 | 65
Cc1c(Cl)cccc1NC(=S)N(Cc1ccccc1)Cc1cccnc1 | 0 | 104 | i | 0.89 | · | · | ·
COc1ccc(-c2cc(=O)c3cc(OC)c(OC)cc3[nH]2)cc1 | -10 | 104 | i | 0.8 | -1.9 | 33 | 76
CCc1cccc(CC)c1NC(=O)CSc1nnc(CCC(=O)O)c(=O)[nH]1 | -3 | 107 | i | 0.88 | · | 45 | 138
NC(=O)COc1ccc(C2c3c(oc4ccccc4c3=O)C(=O)N2CC2CCCO2)cc1 (centres undefined) | -2 | 79 | i | 0.96 | -0.4 | · | ·
Cc1ccc(O)c(-c2cc(-c3cccc(F)c3)n[nH]2)c1 | -5 | 56 | i | 0.75 | 0.3 | -48 | 49
NC(=O)CC[C@@H]1NC(=O)[C@@H]2CCCN2C(=O)c2cc([N+](=O)[O-])cc(I)c2NCCC[C@@H](C(=O)NC(CC(=O)O)C(N)=O)NC1=O (some centres undefined) | -15 | 106 | i | 1 | -1.9 | 23 | 116
C/C(=N\OC(=O)c1ccc(Cl)cc1)c1nccs1 | 0 | 90 | i | 0.95 | -2.7 | -213 | 96
O=C1CCCCC1Sc1nnc(-c2ccc3c(c2)OCO3)o1 (centres undefined) | -1 | 103 | i | 0.9 | · | · | ·

Compounds above that have a furan ring, fused or not:
SMILES | PKD1 kinase inh | RGS16-Gao HTS | HSV augment | HSV augment primary fold | GALR2 agonist | INS promoter inh | INS promoter inh cell count
C/C(=N\NS(=O)(=O)c1cccc([N+](=O)[O-])c1)c1cc2ccccc2o1 | 2 | 94 | i | 0.98 | -1.5 | 19 | 126
Cc1ccccc1N1CCN(C(=S)c2ccc(-c3ccc([N+](=O)[O-])cc3)o2)CC1 | · | 96 | i | 0.83 | · | · | ·
COc1ccc(CNC(=O)/C=C/c2ccc(S(=O)(=O)NCc3ccco3)cc2)cc1OC | -9 | 111 | i | 0.95 | -0.4 | 50 | 92

Some of the entries so far, field by field.
compound: CCn1cc([N+](=O)[O-])c(C(=O)Nc2c(C)nn(Cc3c(F)c(F)c(F)c(F)c3F)c2C)n1
  PKD1 kinase inh: 1
  RGS16-Gao HTS: 78
  HSV augment: i
  HSV augment primary fold: 0.96
  GALR2 agonist: -0.8
  INS promoter inh: 30
  INS promoter inh cell count: 93
compound: O=C1CCCCC1Sc1nnc(-c2ccc3c(c2)OCO3)o1 (centres undefined)
  PKD1 kinase inh: -1
  RGS16-Gao HTS: 103
  HSV augment: i
  HSV augment primary fold: 0.9
  GALR2 agonist: ·
  INS promoter inh: ·
  INS promoter inh cell count: ·
compound: COc1cc2cc(C(=O)O)n(C)c2c(OC)c1OC
  PKD1 kinase inh: 0
  RGS16-Gao HTS: 103
  HSV augment: i
  HSV augment primary fold: 0.92
  GALR2 agonist: -0.2
  INS promoter inh: ·
  INS promoter inh cell count: ·
compound: NC(=O)CC[C@@H]1NC(=O)[C@@H]2CCCN2C(=O)c2cc([N+](=O)[O-])cc(I)c2NCCC[C@@H](C(=O)NC(CC(=O)O)C(N)=O)NC1=O (some centres undefined)
  PKD1 kinase inh: -15
  RGS16-Gao HTS: 106
  HSV augment: i
  HSV augment primary fold: 1
  GALR2 agonist: -1.9
  INS promoter inh: 23
  INS promoter inh cell count: 116

The list goes on:
SMILES | PKD1 kinase inh | RGS16-Gao HTS | HSV augment | HSV augment primary fold | GALR2 agonist | INS promoter inh | INS promoter inh cell count
CC(C)Oc1ccc(Br)cc1/C=N\NC(N)=S | 1 | 105 | i | 0.87 | 0.3 | -27 | 113
Cc1cccc(NC(=O)Cn2c(O)c(N=NC(=O)c3ccncc3)c3ccccc32)c1 | -11 | 105 | i | 0.78 | · | · | ·
COc1ccc(/C=N/NC(=O)c2snnc2C)c(OC)c1OC | -6 | 132 | i | 1 | · | 67 | 37
CCCCCNCC(=O)Nc1cccc(C(=O)Nc2cccc(C(F)(F)F)c2)c1 | 0 | 102 | i | 0.75 | · | · | ·
COc1ccc(N2CCN(C(=O)CN(C3CCCCC3)S(C)(=O)=O)CC2)cc1 | -2 | 109 | i | 0.98 | · | · | ·
CN1C(C(=O)NCCc2cccs2)CC2Cn3c(nc4cc5ccccc5cc43)C21 (centres undefined) | · | 96 | i | 0.95 | · | · | ·
Cc1cc(C)n(CC(C)NC(=O)c2cc(COc3c(F)cccc3F)on2)n1 (centres undefined) | 0 | 99 | i | 1 | · | · | ·
COc1ccccc1N1CCN(c2nc(C)nc3c2oc2ccccc23)CC1 | 14 | 113 | i | 0.73 | 1.4 | · | ·
C=CCOc1ccc(/C=C2\SC(=S)N(N3CCOCC3)C2=O)cc1 | · | 98 | i | 1.1 | · | · | ·
CCS(=O)(=O)N1CCCC(C(=O)NCc2ccccc2Cl)C1 (centres undefined) | -8 | 114 | i | 1 | -2.1 | 48 | 66
CCOC(=O)c1cc2c(nc1N)CCCC2 | · | 98 | i | 0.94 | · | · | ·
CCOC(=O)NC(NC(=O)OCC)C(=O)c1ccccc1 | -15 | 101 | i | 0.91 | -2.1 | 0 | 63
CCOc1ccc2nc(SCC(=O)c3ccccc3)sc2c1 | -1 | 97 | i | 0.87 | 0.6 | 3 | 176
O=C(Nc1ccc(F)cc1)Nc1ccc(N2CCCC2)c(S(=O)(=O)Nc2ccccc2Cl)c1 | -11 | 112 | i | 1 | 0.5 | 25 | 73
COc1ccccc1N1CCN(C(=O)Cn2nnc(-c3ccncc3)n2)CC1 | -2 | 97 | i | 0.91 | -3.4 | 29 | 104
CN(C)S(=O)(=O)c1ccc(-c2ccccc2)cc1 | -11 | 98 | i | 0.91 | -3.2 | 53 | 64
O=c1[nH]ncc(N/N=C\c2cccs2)c1Cl | -5 | 101 | i | 0.95 | · | · | ·
Cc1c(NS(=O)(=O)c2ccc3c(c2)n(C)c(=O)n3C)c(=O)n(-c2ccccc2)n1C | 4 | 103 | i | 0.88 | -2.0 | 43 | 100
COc1ccc(Cl)cc1C(=O)NNC(=O)CCNC(C)=O | 4 | 105 | i | 0.97 | · | · | ·
CCCCC#Cc1cncc(C(=O)N/N=C/c2ccccc2)c1 | · | 103 | i | 0.93 | · | · | ·
N#CCC(=O)N/N=C/c1cn(Cc2ccc3ccccc3c2)c2ccccc12 | · | 116 | i | 1.1 | · | · | ·
N#Cc1cccc(NC(=O)Cc2ccccc2)c1 | -4 | 88 | i | 1.1 | · | -10 | 85
Cc1c(-n2c(O)c(C3=c4ccccc4=NC3=O)sc2=O)c(=O)n(-c2ccccc2)n1C | 4 | 94 | i | 1 | · | · | ·
COc1ccc(OC)c(NC(=O)CSc2nnc(Cn3nnc4ccccc43)n2C)c1 | -4 | 103 | i | 0.91 | -2.4 | 43 | 132
COc1ccc(C2COC(=O)C2=N)c(NC(=O)c2ccccc2)c1 (centres undefined) | -5 | 110 | i | 1 | -1.3 | 24 | 63

Of the compounds above, these contain a cyano group.
SMILES | PKD1 kinase inh | RGS16-Gao HTS | HSV augment | HSV augment primary fold | GALR2 agonist | INS promoter inh | INS promoter inh cell count
N#CCC(=O)N/N=C/c1cn(Cc2ccc3ccccc3c2)c2ccccc12 | · | 116 | i | 1.1 | · | · | ·
N#Cc1cccc(NC(=O)Cc2ccccc2)c1 | -4 | 88 | i | 1.1 | · | -10 | 85

Later entries
SMILES | PKD1 kinase inh | RGS16-Gao HTS | HSV augment | HSV augment primary fold | GALR2 agonist | INS promoter inh | INS promoter inh cell count
O=S(=O)(NC(=S)NC1CCCCC1)c1ccc(Cl)cc1 | 5 | 112 | i | 1.1 | · | · | ·
O=C(CSc1n[nH]c(-c2ccccc2)n1)Nc1ncccn1 | 32 | 104 | i | 1 | · | · | ·
CCc1nccn1S(=O)(=O)c1cccc([N+](=O)[O-])c1 | -3 | 103 | i | 0.91 | -1.2 | 20 | 118
COc1cnc(-c2ccccn2)nc1Sc1cccc(Cl)c1 | -3 | 104 | i | 0.56 | -1.4 | · | ·
Cc1nn(C)c(Oc2cccc(Cl)c2)c1C(=O)O | 4 | 124 | i | 0.99 | -1.5 | -4 | 103
CCCCN1CC(C(=O)NC2CCCCC2)CC1=O (centres undefined) | 1 | 99 | i | 0.9 | -1.0 | -42 | 125
COc1ccc(/C=C(\C#N)C(=O)N=CN(C)C)cc1 | -5 | 107 | i | 0.94 | · | 45 | 104
COc1ccc(S(=O)(=O)N(C)CC(=O)NC2CCCCC2)cc1OC | -6 | 95 | i | 0.76 | -1.6 | -244 | 85
O=C(COc1ccc(Cl)cc1Cl)NCCC1=CCCCC1 | 6 | 102 | i | 0.89 | -0.8 | 35 | 94
O=C(COc1ccc(Cl)cc1Cl)NN1C(=O)C2C3C=CC(C3)C2C1=O (centres undefined) | · | 91 | i | 0.94 | · | · | ·
O=C(CC1SC(=Nc2cccc3ccccc23)N(Cc2ccccn2)C1=O)Nc1ccccc1Br (centres undefined) | 4 | 101 | i | 0.92 | -0.6 | -23 | 89
Cc1onc(-c2c(F)cccc2Cl)c1C(=O)ONC(=O)c1ccccc1 | · | 101 | i | 0.68 | · | · | ·
CCCCn1c(SCC(=O)N2CCC(C)CC2)nc2ccsc2c1=O | -9 | 101 | i | 1 | -1.8 | -89 | 38
CS(=O)(=O)N1N=C(c2ccco2)CC1c1ccccc1 (centres undefined) | 2 | 102 | i | 0.89 | -0.8 | · | ·
O=C(O)C1C2C=CC3(CN(Cc4ccncc4)C(=O)C13)O2 (centres undefined) | 1 | 105 | i | 0.8 | -0.9 | 3 | 76
COc1cccc(OCCNc2cc(N3CCCCC3)ccc2[N+](=O)[O-])c1 | -6 | 98 | i | 1.2 | -0.8 | · | ·
O=C(O)c1ccc(Cl)cc1NC(=O)C1CCCO1 (centres undefined) | -4 | 100 | i | 1.1 | -1.0 | 56 | 101
COc1ccc(OC)c2[nH]c(=O)c(CCNC(=O)COc3ccccc3)cc12 | 4 | 99 | · | · | -0.5 | -45 | 77
COc1ccccc1NC(=O)C/C(C)=N/NC(=O)COc1c(Br)cc(Br)cc1OC | 0 | 106 | i | 0.84 | · | -6 | 112
COc1ccc(-c2nc(-c3ccccc3)no2)c(OC)c1 | -1 | 68 | i | 1 | -3.0 | 0 | 103
